Env fusion inh = inhibitors of HIV Env-mediated cell fusion; HeLa-JRFL Env/CEM21 cell fusion, luciferase; inhibition, % at 12.3 µM; actives 1.1% (n = 360,000); AID 651610;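 active = mean replicate inhibition score of at least 50 and every replicate individually at or above 50; inconclusive = only one of the two criteria met; inactive = mean below 50 and not all replicates reaching 50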;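 also: 0% = plate neutral controls and 100% = maraviroc near 300 nM; one replicate is shown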
Rce1 inh = yeast Ras-converting enzyme inhibition; Q03530; yeast membranes, quenched prenylated peptide cleavage fluorescence; calls only; actives 0.27% (n = 290,000); AID 2563;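 active = fall in fluorescence gain of 50% or more versus controls, with final raw signal at or below 3038400; inconclusive = same 50% fall but final raw signal above 3038400; inactive = fall in fluorescence gain under 50%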;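 also: plate controls were neutral control wells for no effect and wells lacking membranes for full effect; tested at 10 µM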
Target sequence (Q03530 whole entry, looked up): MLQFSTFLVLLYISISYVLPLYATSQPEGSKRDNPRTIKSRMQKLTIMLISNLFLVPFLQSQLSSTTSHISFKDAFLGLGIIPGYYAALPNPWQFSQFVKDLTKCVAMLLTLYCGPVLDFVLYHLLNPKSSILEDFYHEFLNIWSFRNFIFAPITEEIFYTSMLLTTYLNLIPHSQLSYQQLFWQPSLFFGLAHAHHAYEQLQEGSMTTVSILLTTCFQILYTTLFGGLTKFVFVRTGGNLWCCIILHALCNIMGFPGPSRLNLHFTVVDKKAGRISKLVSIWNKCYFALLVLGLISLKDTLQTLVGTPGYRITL
eIF4H FP inh = inhibitors of RNA binding by human eIF4H | Q15056 | eIF4H fluorescence polarization binding assay | inhibition, % at 35 µM | actives 0.94% (n = 290,000) | AID 2012;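 active = 50% or more with normal probe brightness, or confirmed in later tests; inconclusive = above 50% with abnormal brightness, or retests that disagree; inactive = below 50% or failed in later tests; about a fifth of its hits are not listed in these tables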;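 also: calls also rest on retests at 20 µM and on dose response follow-up; 0% = protein and probe with vehicle and 100% = probe without protein; strong numbers were not always called active; many hits fall short of the cut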
PABP polyA inh = blocks human PABP binding to poly(A) RNA; fluorescence polarization; inhibition, % at 35 µM; actives 1% (n = 290,000);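 active = 50% or more with normal probe brightness, or confirmed in later tests; inconclusive = above 50% with abnormal brightness, or retests that disagree; inactive = below 50% or failed in later tests; about a fifth of its hits are not listed in these tables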;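 also: calls also rest on retests at 20 µM and on dose response follow-up; controls were probe without protein and protein plus probe with vehicle; some compounds called inactive have numbers as strong as hits; many hits fall short of the cut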
Target sequence (P11940 whole entry, looked up): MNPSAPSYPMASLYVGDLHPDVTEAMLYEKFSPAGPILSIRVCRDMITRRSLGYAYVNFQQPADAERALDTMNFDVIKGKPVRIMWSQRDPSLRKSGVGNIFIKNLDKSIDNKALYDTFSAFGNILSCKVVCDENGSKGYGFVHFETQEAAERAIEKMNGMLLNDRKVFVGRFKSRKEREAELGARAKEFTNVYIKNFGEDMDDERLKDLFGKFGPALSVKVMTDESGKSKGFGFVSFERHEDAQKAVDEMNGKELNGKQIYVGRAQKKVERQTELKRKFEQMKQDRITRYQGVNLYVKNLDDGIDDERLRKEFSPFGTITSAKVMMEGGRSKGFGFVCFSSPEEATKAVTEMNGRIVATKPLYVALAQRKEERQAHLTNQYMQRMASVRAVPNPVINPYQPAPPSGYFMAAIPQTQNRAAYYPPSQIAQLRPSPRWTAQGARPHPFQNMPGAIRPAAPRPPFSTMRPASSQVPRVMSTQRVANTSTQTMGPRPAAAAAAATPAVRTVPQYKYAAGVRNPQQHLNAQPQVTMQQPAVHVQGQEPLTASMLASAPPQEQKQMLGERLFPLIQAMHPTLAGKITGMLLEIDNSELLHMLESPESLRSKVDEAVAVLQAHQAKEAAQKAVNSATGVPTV
CSC inhib = cancer stem cell inhibition; AID 2717; cancer stem cell-like cells viability, luminescence; inhibition, % at 7.5 µM; actives 1.1% (n = 300,000);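 active = mean at 75% or more and at least half the replicates too; inconclusive = mean and replicates disagree; tested in HMLE shEcad cells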;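 also: 0% = median of negative and 100% = median of positive control wells; the first replicate is given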
MT1-MMP act inh = MT1-MMP (human) activation inhibition. P50281. HT1080 RFP-PRO-GFP cells, GFP/RFP ratio fluorescence, overnight; percent of plate control window, DMSO zero. GFP/RFP ratio change, % at 20 µM. actives 0.061% (n = 360,000). AID 651647;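 active = GFP/RFP ratio change of at least 30% with cell ATP level not reduced by more than half and red fluorescence within 50% of control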; also: strong numbers were not always called active
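Read-out: GFP/RFP fluorescence ratio; Test system: RFP-PRO-GFP reporter HT1080 cells; Compound dosing: single-point 20 µM compound, 1% DMSO; Times: overnight compound exposure at 37 °C.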
UUG fidelity = yeast start codon fidelity modulation. S. cerevisiae UUG-firefly luciferase reporter, luminescence/redox ratio. activity score, % at 18.7 µM. actives 0.13% (n = 350,000);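 active = replicate mean at a twofold rise or more, about +100% in these data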;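 also: firefly luciferase made from a UUG start codon reports start codon fidelity; reporter light over untreated wells divided by growth signal over untreated wells; some hits fall short of that in this replicate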
eIF4H FP inh retest = second read-out of eIF4H FP inh, no call of its own (marks repeat the call); inhibition, %; compound at 20 µM; confirmation average;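 mean of two retest wells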
PABP polyA inh retest = second read-out of PABP polyA inh, no call of its own (marks repeat the call); inhibition, %; compound at 20 µM; confirmation repeats;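 mean of two retest wells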
MT1-MMP act inh RFP = recorded beside MT1-MMP act inh, whose call it bears; RFP signal change, %; measured here: RFP expression control read;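 0 = vehicle wells; hits needed this value within 50% of zero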
An asterisk follows results filed as active; i = inactive; ? = inconclusive; . = no result given.

SMILES	Env fusion inh	Rce1 inh	eIF4H FP inh	PABP polyA inh	CSC inhib	MT1-MMP act inh	MT1-MMP act inh RFP	UUG fidelity	others
Cc1c(NC(=O)CN2CCN(c3cccc(Cl)c3)CC2)c(=O)n(-c2ccccc2)n1C	2	.	8	-7	-7	0	-3	.
Cc1ccc(CSc2nc3[nH]ncc3c(=O)[nH]2)cc1	-14	i	8	-7	7	4	-3	.
Nc1c(Cl)cc(-c2csc(N3CCCC3c3nc4cc(Cl)c(Cl)cc4n3CCOCCO)n2)cc1Cl (stereo not given)	.	i	-14	-2	-16	-3	4	-14
CCOC(=O)CNC(c1ccccc1)c1cc(Br)ccc1NC(C)=O (stereo not given)	5	i	28	-9	14	-8	-1	.
COc1ccc(C2C3=C(CCCC3=O)Nc3nc(C(F)(F)F)nn32)cc1OC (stereo not given)	.	i	-2	4	-2	-1	1	-1
Cc1noc(NS(=O)(=O)c2ccc(NC(=O)c3ccc(Br)o3)cc2)c1C	.	i	-14	2	-4	4	-1	-10
CCCCCCCCSc1nnc(CSc2nc3nc(C)cc(C)n3n2)o1	?	i	-12	-1	62	0	-14	0
CCc1nc2ccc(C(=O)Nc3ccc4c(c3)OCC(=O)N4)cn2c1N(C)C(=O)C1CCCCC1	-47	.	.	.	.	-5	-1	-11
Cc1ccc(NC(=O)COC(=O)Cc2ccc(Br)cc2)cc1S(=O)(=O)N1CCOCC1	1	.	.	.	-24	4	0	-12
NC(=O)CSc1nc2c(sc3ccccc32)c(=O)n1CCCN1CCOCC1	-59	i	-7	-5	-7	6	2	-5
Cc1csc(Sc2ccc(C(=O)OCC(=O)Nc3ccc(OC(F)(F)F)cc3)cc2[N+](=O)[O-])n1	11	i	3	-12	-19	2	-2	-10
COc1ccccc1-c1sc2ccccc2c1C#Cc1ccc(N(C)C)cc1	-9	.	.	.	38	-2	2	-26

The closing 3 records of the part above lead into the next.
SMILES	Env fusion inh	Rce1 inh	eIF4H FP inh	PABP polyA inh	CSC inhib	MT1-MMP act inh	MT1-MMP act inh RFP	UUG fidelity	others
NC(=O)CSc1nc2c(sc3ccccc32)c(=O)n1CCCN1CCOCC1	-59	i	-7	-5	-7	6	2	-5
Cc1csc(Sc2ccc(C(=O)OCC(=O)Nc3ccc(OC(F)(F)F)cc3)cc2[N+](=O)[O-])n1	11	i	3	-12	-19	2	-2	-10
COc1ccccc1-c1sc2ccccc2c1C#Cc1ccc(N(C)C)cc1	-9	.	.	.	38	-2	2	-26
Cc1ccc(NC(=O)C2CCCN2C(=O)NC2CCCCC2)cc1C (stereo not given)	2	i	-2	-3	-4	1	1	.
CC(C)C(C(=O)Nc1nccs1)N1C(=O)c2ccccc2C1=O (stereo not given)	-13	i	-11	-16	-7	4	3	.
Cc1sc2nc(CN(Cc3cccs3)C(=O)NC3CCCCC3)[nH]c(=O)c2c1C	.	i	-7	-4	6	-1	-6	-4
O=C(O)c1ccc(N2CC3CC(C2)c2cccc(=O)n2C3)c(NC(=S)Nc2ccc(Br)cc2)c1 (stereo not given)	-16	i	2	-12	25	2	-1	-34
CC(=O)c1ccccc1Oc1nc(CN2CCOCC2)nc2scc(-c3cccs3)c12	5	i	11	-5	3	2	1	0
CN(CC1COc2ccccc2O1)C(=O)c1ccc(N(C)C)cc1 (stereo not given)	-19	i	-15	7	-1	0	-1	.
O=C(c1cc2ccccc2o1)N1CCN=C1SCc1cccc(F)c1	1	i	-6	1	-2	1	2	-3
Fc1cccc2sc(N3CCCCC3)nc12	-107	i	-4	2	10	2	4	-9
COc1ccc(/C=C/C2=NNC(=O)CC2)cc1	60*	i	-10	11	-8	-3	2	.
Cc1cc(=O)oc2c3c(cc(OCC(=O)N[C@@H](C)C(=O)O)c12)OC(C)(C)CC3	0	i	1	0	3	-1	3	-9
CCOC(=O)CC1C(=O)NCCN1C(=O)COc1ccc(Br)cc1C (stereo not given)	.	i	-11	8	-5	1	5	.
OC[C@H]1OC(O)C[C@@H](O)[C@@H]1O (stereo not given in full)	16	i	.	.	-9	2	1	-15
COc1ccc(/C=C/C(=O)c2c(C)cc(C)[nH]c2=O)c2ccccc12	16	i	0	9	-2	1	0	-16
Cc1cc(C)n(-c2ccc(C(=O)OCC(=O)Nc3ccc([N+](=O)[O-])cc3)cc2)n1	.	i	-3	-3	0	3	4	3
O=c1[nH]c(Cc2ccccc2)nc2scc(-c3ccccc3)c12	.	i	-5	-5	2	-12	-13	-4
O=C(COc1ccc(S(=O)(=O)NC2CCCCC2)cc1)NCC1CCCO1 (stereo not given)	24	i	-2	4	-2	2	2	4
COc1ccccc1CNC(=O)c1cccnc1	18	i	4	-4	-6	-1	5	-7
Cc1ccc(C)c(S(=O)(=O)Nc2ccc3sc(C)nc3c2)c1	-12	.	1	0	12	4	-3	10
Oc1ccc2ccccc2c1/C=N/Nc1nnc(-c2ncc[nH]2)c2ccccc12	-62	i	48	52	100*	-42	-7	-24	eIF4H FP inh retest=-8;PABP polyA inh retest=6
CC(C)(C)c1ccc(S(=O)(=O)N2CCN(CC(=O)N3CC(=O)Nc4ccccc43)CC2)cc1	8	.	.	.	.	-3	-3	2
CCOc1ccc(C(C)(C)C)cc1S(=O)(=O)N1CC(C)OC(C)C1 (stereo not given)	.	i	3	4	-2	-5	-3	37
C=CCn1c(SCC(=O)Nc2cccc(S(=O)(=O)N(C)c3ccccc3)c2)nnc1C1CC1	1	i	.	.	-8	0	-4	-19
O=C(CC1OC(=O)c2ccccc21)Nc1ccc(Cl)c(S(=O)(=O)N2CCCCC2)c1 (stereo not given)	-61	i	.	.	-13	-4	-16	4
COc1ccc(N2C(=O)C(Cl)=C(N(CCO)Cc3ccccc3)C2=O)cc1	-9	i	-6	-2	-11	2	2	11

Structures shown so far with a COOH group:
SMILES	Env fusion inh	Rce1 inh	eIF4H FP inh	PABP polyA inh	CSC inhib	MT1-MMP act inh	MT1-MMP act inh RFP	UUG fidelity	others
O=C(O)c1ccc(N2CC3CC(C2)c2cccc(=O)n2C3)c(NC(=S)Nc2ccc(Br)cc2)c1 (stereo not given)	-16	i	2	-12	25	2	-1	-34
Cc1cc(=O)oc2c3c(cc(OCC(=O)N[C@@H](C)C(=O)O)c12)OC(C)(C)CC3	0	i	1	0	3	-1	3	-9

(more compounds)
SMILES	Env fusion inh	Rce1 inh	eIF4H FP inh	PABP polyA inh	CSC inhib	MT1-MMP act inh	MT1-MMP act inh RFP	UUG fidelity	others
COc1ccc(C(=O)N/N=C/c2c(C)nn(-c3ccccc3)c2OC)cc1	8	i	.	.	3	4	0	.
Cc1cc2nc(Sc3c([N+](=O)[O-])nc(C)n3Cc3ccccc3)[nH]c2cc1C	4	i	4	18	-4	-6	-12	.
Cc1ccc(NC(=O)CSc2nnc(-c3ccoc3C)n2CCCN(C)C)cc1Cl	7	.	-12	-5	-14	3	3	-16
Cc1ccccc1-c1oc(C)c(C)[n+]1[O-]	20	i	-11	-9	4	-1	4	.
CCCCNC(=O)COC(=O)c1ccc(F)cc1Cl	-6	i	-6	16	6	-8	-4	.
CNC(=O)c1cc(Cl)c(OC)c(OC)c1	19	i	0	3	-3	0	3	3
CCCn1c(=O)c2c(ncn2C)n(CCC)c1=O	-81	.	.	.	-13	5	8	-19
Cc1nc2ccccc2c(=O)n1NC(=O)c1c(F)cccc1F	1	i	0	1	6	0	0	7
Cc1cccc(N2CCN(Cc3nc(-c4ccccc4Cl)oc3C)CC2)n1	30	i	-6	-6	2	2	-1	11
COc1ccc(S(=O)(=O)NC2CC2)cc1-n1cnnn1	30	i	3	-4	8	2	3	-9
COc1cc(SC)ccc1C(=O)Nc1ccc(S(=O)(=O)N2CCCC2)cc1	.	i	-3	-12	-5	4	5	-14
COc1ccc(C(=O)Nc2ccc3nc(N4CCN(C)CC4)cc(C)c3c2)c(OC)c1	-12	i	-8	8	3	-10	-3	-21

Next part, overlapping the part above by three compounds.
SMILES	Env fusion inh	Rce1 inh	eIF4H FP inh	PABP polyA inh	CSC inhib	MT1-MMP act inh	MT1-MMP act inh RFP	UUG fidelity	others
COc1ccc(S(=O)(=O)NC2CC2)cc1-n1cnnn1	30	i	3	-4	8	2	3	-9
COc1cc(SC)ccc1C(=O)Nc1ccc(S(=O)(=O)N2CCCC2)cc1	.	i	-3	-12	-5	4	5	-14
COc1ccc(C(=O)Nc2ccc3nc(N4CCN(C)CC4)cc(C)c3c2)c(OC)c1	-12	i	-8	8	3	-10	-3	-21
CC(C)CN(C(=O)c1ccc(S(=O)(=O)N2CCOCC2)cc1)C1CCS(=O)(=O)C1 (stereo not given)	-29	i	.	.	4	-2	0	.
COc1cccc(N(CC(=O)N2CCN(c3ccccc3OC)CC2)S(C)(=O)=O)c1	-68	i	10	-2	1	-1	1	44
O=C(COc1cccc2c1CCNC2=O)Nc1ccc(Cl)cc1	-1	i	.	.	.	1	-2	.
CCCc1[nH]c(=O)c(C#N)c2c1COC(C)(C)C2	-57	i	-8	1	-6	3	3	-10
CC(C)OCCCNC(=O)c1ccc(NS(C)(=O)=O)cc1	-43	i	-4	-7	-10	3	4	0
COc1ccc(C(CC(=O)c2ccc3c(c2)OCO3)C(=O)O)cc1OC (stereo not given)	-8	.	.	.	.	3	5	-36
O=C(O)/C=C/c1ccc(-n2ccnc2)cc1	7	i	1	-10	-15	-1	4	-11
CC(=O)NC(c1cccc(F)c1)c1nc(/C=C/c2ccccc2)cs1 (stereo not given)	6	.	.	.	.	0	-1	-11
O=C(C(Cc1ccccc1)N1C(=O)C2C3CCC(C3)C2C1=O)N1CCCCC1 (stereo not given)	.	i	1	1	.	-4	-1	-28

Compound activity as filed in PubChem BioAssay.

Some of the compounds tested; the hit share may differ from the screen's.
